Screening results (PubChem)
ugtP null kill – compounds lethal to S. aureus RN4220 ugtP deletion mutant; OD600 growth, 16 h; some inactives read as strong as hits; growth inhibition, % (test concentration not listed); 0.54% of 330,000 active;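 active = z-score under -3 and OD600 up to 0.15 on both plates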;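 note: plate controls were untreated wells for no effect and antibiotic for full effect; wells of about 80 µL received 100 nL stock; the first replicate is given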
Mtb hypoxia inh – inhibitors of hypoxia-regulated fluorescent reporter in Mycobacterium tuberculosis. M. tuberculosis hypoxia-regulated fluorescent reporter, fluorescence. fluorescence inhibition, % (test concentration not listed). 0.1% of 300,000 active;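 active = 35 to 45% if threefold the growth effect, above 45% if 1.5-fold the growth effect; inactive = the rest, general growth blockers included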;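 note: wells of about 50 µL received 100 nL stock; 0% = vehicle wells and 100% = reference inhibitor wells; whole bacteria with a GFP reporter of the hypoxia response; strong numbers were not always called active; many hits fall short of the cut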
RN4220 kill – kills Staphylococcus aureus RN4220. AID 1259311. S. aureus RN4220 growth, OD600, 16 h. 0.33% of 330,000 active. inhibition, % (no concentration beside the values);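 active = z-score of -3 or lower and OD600 up to 0.18 on both plates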;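 note: plate controls were untreated cells for no effect and reference antibiotic for full effect; stock transfer was 100 nL into about 80 µL; one replicate is shown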
PrP UTR inh – inhibition of PrP 5' UTR reporter expression | cell-based PrP 5' UTR mRNA reporter, plate reader | inhibition, % (no concentration beside the values) | 0.35% of 340,000 active;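 active = every replicate at 50% or more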;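 note: 0 = median of the neutral control wells; tested in H4 reporter cells; numbers are from one replicate; inactives centre near -14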
BJeLR viability – kills HRASV12-expressing BJeLR cells; 0.17% of 300,000 active; BJeLR (HRASV12) viability, CellTiter-Glo ATP luminescence, 48 h; reference of the scale not given here; AID 1554; inhibition, % (no concentration beside the values);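 active = replicate mean above 50%; inconclusive = above 50% but judged a plate artefact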;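 note: 50 nL library stock added to about 25 µL; numbers are from one replicate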
Autofluor counter – compound fluorescence in toxin protease inhibitor counterscreen. compound autofluorescence counterscreen, microsphere flow cytometry; stronger effect = higher value. fluorescence intensity (test concentration not listed). 3.1% of 360,000 active. AID 624483;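 active = at least 3 SD above the mean of all compounds, about 16000 in these data; inconclusive = too few beads counted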;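 note: 100 nL of 1 mM stock went into each well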
Mtb hypoxia inh growth – recorded beside Mtb hypoxia inh, whose call it bears; growth inhibition, %; measured here: M. tuberculosis growth (absorbance);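 0% = vehicle and 100% = reference antibiotic; read after six days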
* marks the source's active call; other numbers are inactive results. An unsorted share of the library. About 3.9% of those tested had a hit in this group.

Screening O=C(N/N=C/c1cccs1)C(O)c1ccccc1 (stereo unspecified) returned PrP UTR inh -22, BJeLR viability 3 and Autofluor counter 4003.
CN1CCN(c2ccccc2NC(=O)COc2ccc(C3CCCCC3)cc2)CC1 was read as ugtP null kill -6, Mtb hypoxia inh 8, RN4220 kill -4.6, PrP UTR inh -2, BJeLR viability -3, Autofluor counter inconclusive and Mtb hypoxia inh growth 18.
`[O-]/[N+](=C\c1cccc(Br)c1)c1ccccc1` gave ugtP null kill 2, Mtb hypoxia inh -5, RN4220 kill 8.3, PrP UTR inh -41, BJeLR viability -4, Autofluor counter 2202 and Mtb hypoxia inh growth -1.
`CC(C)(C)c1ccc(NC(=O)COC(=O)CCN2C(=O)c3cccc([N+](=O)[O-])c3C2=O)cc1` gave ugtP null kill 7, Mtb hypoxia inh -7, RN4220 kill -2.5, PrP UTR inh -3, BJeLR viability 0, Autofluor counter 2049 and Mtb hypoxia inh growth 9.
`Cc1ccc(/C(O)=C2\C(=O)C(=O)N(C)C2c2cccc([N+](=O)[O-])c2)cc1` (stereo unspecified) gave ugtP null kill 0, Mtb hypoxia inh 4, RN4220 kill 4.8, PrP UTR inh -28, BJeLR viability -4, Autofluor counter 4570 and Mtb hypoxia inh growth 16.
Screening CN(c1ccc(C(=O)NC2CCCC2)cc1)S(=O)(=O)c1ccccc1 returned ugtP null kill 9, Mtb hypoxia inh 4, RN4220 kill 6.3, PrP UTR inh -18, BJeLR viability -3, Autofluor counter 3860 and Mtb hypoxia inh growth -1.
COc1ccc(C2=CCCCCC2)c(OC)c1OC was read as ugtP null kill 30, Mtb hypoxia inh 12, RN4220 kill 3.1, PrP UTR inh -18, Autofluor counter 3766 and Mtb hypoxia inh growth 9.
For COc1ccc(-c2ccc3c(c2)S(=O)(=O)c2cccc(C(=O)NC4CCCCC4)c2C3=O)cc1OC the results were ugtP null kill 10, Mtb hypoxia inh 3, RN4220 kill 2.3, PrP UTR inh -23, Autofluor counter 3845 and Mtb hypoxia inh growth 1.
Screening NC(=O)c1c(NC(=O)c2ccccc2C(=O)O)sc2c1CCCC2 returned ugtP null kill 5, Mtb hypoxia inh 8, RN4220 kill 4.4, PrP UTR inh -14, BJeLR viability -2, Autofluor counter 4585 and Mtb hypoxia inh growth 2.
Cc1cc(C)cc(N(CCC#N)C(=O)CSc2ncnc3sccc23)c1 was read as ugtP null kill -2, Mtb hypoxia inh -4, RN4220 kill -0.5, PrP UTR inh -1, Autofluor counter 2988 and Mtb hypoxia inh growth -4.

Entries shown so far with a thiophene ring, fused or not, in the order listed:
Screening O=C(N/N=C/c1cccs1)C(O)c1ccccc1 (stereo unspecified) returned PrP UTR inh -22, BJeLR viability 3 and Autofluor counter 4003.
Screening NC(=O)c1c(NC(=O)c2ccccc2C(=O)O)sc2c1CCCC2 returned ugtP null kill 5, Mtb hypoxia inh 8, RN4220 kill 4.4, PrP UTR inh -14, BJeLR viability -2, Autofluor counter 4585 and Mtb hypoxia inh growth 2.
Cc1cc(C)cc(N(CCC#N)C(=O)CSc2ncnc3sccc23)c1 was read as ugtP null kill -2, Mtb hypoxia inh -4, RN4220 kill -0.5, PrP UTR inh -1, Autofluor counter 2988 and Mtb hypoxia inh growth -4.

(list continues)
For CC(C)(C)c1ccc(C(=O)c2c[nH]c(C(=O)NCCCn3ccnc3)c2)cc1 the results were ugtP null kill 0, Mtb hypoxia inh 3, RN4220 kill -0.9, PrP UTR inh -7, BJeLR viability -8, Autofluor counter 24832* and Mtb hypoxia inh growth 16.
For Cc1cc(-c2nnc(CCC(=O)NC(C)c3ccccc3Cl)o2)no1 (stereo unspecified) the results were ugtP null kill 6, Mtb hypoxia inh 15, RN4220 kill 12, PrP UTR inh -13, BJeLR viability -35, Autofluor counter 5147 and Mtb hypoxia inh growth 11.
For COc1ccccc1C(=O)N/C(=C\c1ccc(Br)cc1)C(=O)NCC(=O)O the results were ugtP null kill -5, Mtb hypoxia inh 7, RN4220 kill 2.4, PrP UTR inh -19, BJeLR viability -5, Autofluor counter 2532 and Mtb hypoxia inh growth 2.
Screening O=C(CSc1ncccn1)N1CCN(C(=O)CSc2ncccn2)CC1 returned ugtP null kill 3, Mtb hypoxia inh 6, RN4220 kill 1.3, PrP UTR inh -16, BJeLR viability -6, Autofluor counter 2599 and Mtb hypoxia inh growth 1.
For CCCCOC(=O)C1=C(C)Nc2ncnn2C1c1ccc(OCC)c(OC)c1 (stereo unspecified) the results were PrP UTR inh -25, BJeLR viability 1 and Autofluor counter 19529*.
Screening O=C(NNC(=O)c1cccc(C(F)(F)F)c1)c1ccncc1 returned ugtP null kill 4, Mtb hypoxia inh 8, RN4220 kill 5.7, BJeLR viability 6, Autofluor counter 3903 and Mtb hypoxia inh growth 0.
For N#CC1=C(N)Oc2n[nH]c(CSc3ccccc3)c2C12C(=O)Nc1ccccc12 (stereo unspecified) the results were ugtP null kill -5, Mtb hypoxia inh 10, RN4220 kill 28, PrP UTR inh -27, BJeLR viability -15, Autofluor counter 10079 and Mtb hypoxia inh growth 6.
Screening COc1ccccc1CNC(=O)CCN1C(=O)COc2ccccc21 returned ugtP null kill -3, Mtb hypoxia inh 3, RN4220 kill 6.2, PrP UTR inh -21, BJeLR viability 14, Autofluor counter 12201 and Mtb hypoxia inh growth 16.
For CN1CCN(C(=O)c2ccc3c(=O)n(Cc4ccc(Cl)cc4)c(=S)[nH]c3c2)CC1 the results were ugtP null kill 3, Mtb hypoxia inh -5, RN4220 kill -6.5, PrP UTR inh -24, BJeLR viability -13, Autofluor counter 20632* and Mtb hypoxia inh growth -7.
For Cc1nn(C)cc1C(=O)/C=C/c1ccc([N+](=O)[O-])cc1 the results were ugtP null kill 14, Mtb hypoxia inh 5, RN4220 kill 14, PrP UTR inh -3, BJeLR viability 0, Autofluor counter 3602 and Mtb hypoxia inh growth 7.
`CC(=O)C(Cc1ccccc1)NC(=O)COC(=O)c1cccc(C)c1[N+](=O)[O-]` (stereo unspecified) gave ugtP null kill -1, Mtb hypoxia inh 7, RN4220 kill 0.1, PrP UTR inh -19, Autofluor counter 8872 and Mtb hypoxia inh growth 8.
`COc1ccc2oc(C(=O)OCC(=O)N3CCN(c4ccccc4)CC3)c(C)c2c1` gave ugtP null kill 3, Mtb hypoxia inh 7, RN4220 kill 1.5, PrP UTR inh -6, BJeLR viability 7, Autofluor counter inconclusive and Mtb hypoxia inh growth 0.
Screening COc1ccccc1NS(=O)(=O)c1cccc(C(=O)N/N=C/c2ccc(N3CCOCC3)cc2)c1 returned PrP UTR inh -38, BJeLR viability 0 and Autofluor counter 9965.
Screening O=C(Oc1ccccc1)c1ccccc1OS(=O)(=O)c1ccccc1 returned ugtP null kill 8, RN4220 kill 29, PrP UTR inh -25, BJeLR viability -7 and Autofluor counter 9827.
COC(=O)c1ccc(Cl)c(NC(=O)CN2CCN(Cc3ccccc3)CC2)c1 was read as ugtP null kill -1, RN4220 kill 2.4, PrP UTR inh -23, BJeLR viability -2 and Autofluor counter 4205.
For CC1=C(C)C(=NOC(=O)c2cccc([N+](=O)[O-])c2)C=CC1=O the results were ugtP null kill -1, Mtb hypoxia inh 11, RN4220 kill 2.6 and Mtb hypoxia inh growth 8.
For Cc1cc(NC(=O)C2(c3ccccc3)CCCC2)no1 the results were ugtP null kill -2, Mtb hypoxia inh 13, RN4220 kill -1.1, PrP UTR inh -9, BJeLR viability 11, Autofluor counter 4986 and Mtb hypoxia inh growth 13.
CC(C)CN(C(=O)c1ccco1)c1nc2ccccc2s1 was read as ugtP null kill 4, Mtb hypoxia inh 8, RN4220 kill 2.9, PrP UTR inh -17, BJeLR viability -20, Autofluor counter 4176 and Mtb hypoxia inh growth 12.
`CCN(CC(=O)Nc1ccc(Br)cc1)C(=O)Cc1cccc(F)c1` gave ugtP null kill -5, Mtb hypoxia inh -7, RN4220 kill -3.5, PrP UTR inh -23, BJeLR viability -8, Autofluor counter 4594 and Mtb hypoxia inh growth -3.
For Cc1cc(C)c2sc(NC(=O)c3ccc([N+](=O)[O-])o3)nc2c1 the results were ugtP null kill 47, Mtb hypoxia inh -7, RN4220 kill 61, PrP UTR inh -43, BJeLR viability -17, Autofluor counter 5584 and Mtb hypoxia inh growth 9.

3 compounds picked at random from the list so far, as already listed:
For CC1=C(C)C(=NOC(=O)c2cccc([N+](=O)[O-])c2)C=CC1=O the results were ugtP null kill -1, Mtb hypoxia inh 11, RN4220 kill 2.6 and Mtb hypoxia inh growth 8.
For Cc1cc(NC(=O)C2(c3ccccc3)CCCC2)no1 the results were ugtP null kill -2, Mtb hypoxia inh 13, RN4220 kill -1.1, PrP UTR inh -9, BJeLR viability 11, Autofluor counter 4986 and Mtb hypoxia inh growth 13.
For Cc1cc(C)c2sc(NC(=O)c3ccc([N+](=O)[O-])o3)nc2c1 the results were ugtP null kill 47, Mtb hypoxia inh -7, RN4220 kill 61, PrP UTR inh -43, BJeLR viability -17, Autofluor counter 5584 and Mtb hypoxia inh growth 9.

New compounds follow:
`Cc1c(NC(=S)NC(=O)C2CCCCC2)c(=O)n(-c2ccccc2)n1C` gave ugtP null kill 3, Mtb hypoxia inh 9, RN4220 kill 3.5, PrP UTR inh -10, BJeLR viability -2, Autofluor counter 2539 and Mtb hypoxia inh growth 2.
For CCC(C)C(NC(=O)OC(C)(C)C)C(=O)NC(C(=O)N1CCCC1C(N)=O)C(C)CC (stereo unspecified) the results were ugtP null kill -5, Mtb hypoxia inh 6, RN4220 kill -13, PrP UTR inh -5, BJeLR viability -1, Autofluor counter 3332 and Mtb hypoxia inh growth 2.
CC(Sc1nc2ccccc2c(=O)n1CC1CCCO1)C(=O)N(C)Cc1ccccc1 (stereo unspecified) was read as ugtP null kill 8, Mtb hypoxia inh 5, RN4220 kill 7.0, PrP UTR inh -18, BJeLR viability -6, Autofluor counter inconclusive and Mtb hypoxia inh growth 8.
Screening O=C(CSC(=S)N1CCCC1)N/N=C/c1c(O)[nH]c(=S)[nH]c1=O returned ugtP null kill 3, Mtb hypoxia inh 3, RN4220 kill 2.3, PrP UTR inh 2, Autofluor counter 3554 and Mtb hypoxia inh growth 0.
For CCOC(=O)c1c(C)nc2c(c1-c1ccccc1)C(=O)CC(C)(C)C2 the results were ugtP null kill -2, Mtb hypoxia inh 17, RN4220 kill 3.7, PrP UTR inh -12, BJeLR viability 12, Autofluor counter 2239 and Mtb hypoxia inh growth 15.
Screening CN1CCN(c2ncnc3nc[nH]c23)CC1 returned ugtP null kill 9, Mtb hypoxia inh 8, RN4220 kill -1.0, PrP UTR inh -11, BJeLR viability 0, Autofluor counter 4108 and Mtb hypoxia inh growth 14.
COc1ccc(CN(C)C(=S)Nc2ccc(Cl)cc2)cc1 was read as ugtP null kill 6, Mtb hypoxia inh 19, RN4220 kill 3.2, PrP UTR inh -26, BJeLR viability 8, Autofluor counter 3195 and Mtb hypoxia inh growth 12.
For O=C(COc1ccc([N+](=O)[O-])cc1)Nc1nnc(-c2cccnc2)s1 the results were ugtP null kill 8, Mtb hypoxia inh 2, RN4220 kill 2.7, PrP UTR inh -15, BJeLR viability 11, Autofluor counter 4231 and Mtb hypoxia inh growth -13.
CCOC(=O)c1cnc(SCC(=O)Nc2cc(C(F)(F)F)ccc2N2CCOCC2)nc1N was read as ugtP null kill 3, RN4220 kill 1.6, PrP UTR inh -13, BJeLR viability -8 and Autofluor counter 5261.
For C=C(C)COc1ccc(-c2n[nH]c(C)c2-c2ccccc2OC)c(O)c1 the results were ugtP null kill 7, Mtb hypoxia inh 17, RN4220 kill -9.5, PrP UTR inh -7, BJeLR viability 2, Autofluor counter 3159 and Mtb hypoxia inh growth 9.
